Bioassay records deposited in PubChem BioAssay by National Center for Advancing Translational Sciences (NCATS).
GLA inh pH 4.5 – qHTS Assay for Inhibitors of Human alpha-Galactosidase at pH 4.5 | Alpha-galactosidase A (Homo sapiens), P06280 | purified enzyme, 4-MU-alpha-Gal fluorescence, pH 4.5 | activity change, negative = inhibition, % at 105 µM | 230,000 tested, under 10 active; inconclusive = small, poorly fitted or top-dose-only inhibition, or a rising curve; inactive = flat fitted curve, though single readings scatter; no compound was filed as active;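 also: 0% = full activity with enzyme and -100% = basal without enzyme; dose as in the result columns while the protocol names 77 µM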
miR-21 FLuc – qHTS Assay for Modulators of miRNAs and/orActivators of miR-21; HeLa miR-21 FLuc reporter, luciferase, 48 h; Potency, µM (highest dose often 38.3 µM), without a hit: at the highest dose reporter change, positive = more light; 340,000 tested, under 10 active; AID 2288, 2010; active = well fitted rising curve with a large enough effect; inconclusive = small, poorly fitted or top-dose-only effect; inactive = no such curve, though single readings can be large or run the other way;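 also: % of control where 0% means no effect; miR-21 action dims this reporter so a rising signal means less miR-21 action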
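Compounds were titrated across several concentrations (up to approximately 40 uM) and incubated 48 hours with HeLa miR-21-FLuc reporter cells (miR-21 target sequence downstream of FLuc, endogenous miR-21). Readout was firefly luciferase luminescence after lytic detection reagent.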
Rango-impB inh – qHTS Assay for Inhibitors of Rango (Ran-regulated importin-beta cargo) - Importin beta complex formation | actives 0.031% (n = 340,000) | Potency, µM (series often up to 92.2 µM), inactives show at the highest dose inhibition of complex formation | AID 540263, 2011 | Rango CFP/YFP FRET sensor + importin beta, 45 min; active = rising FRET ratio curve, often small or poorly fitted; inconclusive = mostly compound fluorescence or quenching in the first reads; inactive = flat curves in all reads;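 also: potency is read from the fitted curve at half-maximal effect; 0% = DMSO wells and 100% = buffer wells lacking importin beta; nearly all actives have a fitted effect of over 15% in size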
Target sequence (Q14974 whole entry, looked up): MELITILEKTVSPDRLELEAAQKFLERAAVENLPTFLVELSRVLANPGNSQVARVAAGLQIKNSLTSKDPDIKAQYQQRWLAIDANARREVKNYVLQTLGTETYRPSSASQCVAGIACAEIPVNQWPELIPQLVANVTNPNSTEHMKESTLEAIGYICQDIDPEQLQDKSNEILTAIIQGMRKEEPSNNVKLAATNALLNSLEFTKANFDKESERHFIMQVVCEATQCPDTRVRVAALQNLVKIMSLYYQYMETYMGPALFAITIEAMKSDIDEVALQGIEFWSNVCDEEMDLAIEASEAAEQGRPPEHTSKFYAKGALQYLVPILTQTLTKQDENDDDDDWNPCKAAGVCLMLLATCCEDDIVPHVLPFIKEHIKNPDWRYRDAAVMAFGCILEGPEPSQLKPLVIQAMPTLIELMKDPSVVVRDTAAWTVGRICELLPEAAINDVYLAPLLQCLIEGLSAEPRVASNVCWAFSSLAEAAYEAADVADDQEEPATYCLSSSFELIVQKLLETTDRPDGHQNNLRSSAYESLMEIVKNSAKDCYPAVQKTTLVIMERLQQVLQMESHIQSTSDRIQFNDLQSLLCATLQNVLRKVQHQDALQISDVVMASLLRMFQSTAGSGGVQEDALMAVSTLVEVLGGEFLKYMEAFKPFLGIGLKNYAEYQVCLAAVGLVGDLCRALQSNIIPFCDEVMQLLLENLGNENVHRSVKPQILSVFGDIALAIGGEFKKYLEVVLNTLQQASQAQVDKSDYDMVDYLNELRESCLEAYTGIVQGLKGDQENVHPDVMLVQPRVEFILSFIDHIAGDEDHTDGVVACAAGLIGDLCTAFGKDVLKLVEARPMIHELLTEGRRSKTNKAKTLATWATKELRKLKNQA
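FRET biosensor (snurportin 1 IBB flanked by EYFP and cerulean), 50 nM, with compound 5 min, then 0.125 microM importin beta in PBS, 1 mM DTT, 0.02% Tween-20, 0.1% BSA. CFP/YFP ratio read after 45 min at room temperature; pre-read flags interference.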
Rango dissoc inh – qHTS Assay for Inhibitors of RanGTP induced Rango (Ran-regulated importin-beta cargo) - Importin beta complex dissociation; Snurportin-1 (Homo sapiens) + GTP-binding nuclear protein Ran (Homo sapiens) + Importin …; actives 0.071% (n = 340,000); Potency, µM (highest dose often 46.1 µM), for inactives: at the top dose activity change, negative = inhibition; Biochemical FRET Rango-importin beta, RanGTP-induced dissociation; active means falling FRET ratio curve, often poorly fitted, with flat reads before Ran was added; inconclusive means other falling curves, or compound fluorescence or quenching; inactive means flat or rising ratio curve;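 also: potency is read from the fitted curve at half-maximal effect; % of control where 0% means no effect; nearly all actives have a fitted effect of over 45% in size; -100% = wells without RanGTP and RCC1; the record marks most hits as doubtful in a second field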
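Recombinant Rango FRET biosensor (EYFP–snurportin 1 IBB–cerulean CFP10) at 0.1 uM premixed with 0.25 uM importin beta in PBS, 1 mM DTT, 0.02% Tween-20, 0.1% BSA. Compound added 5 min; RanGTP-RCC1 (0.6 uM Ran, 2 mM GTP, 0.2 uM RCC1) then triggers release, read at 45 min.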
Active calls of the source: *; u = inconclusive; x = no result given.

entry	smiles	GLA inh pH 4.5	Rango-impB inh	miR-21 FLuc	Rango dissoc inh
1	CCc1ccc(N2CC(C(=O)NCC(C)(C)N3CCOCC3)CC2=O)cc1 (centres undefined)	x	4.5%	x	-3%
2	Cc1cc(OCc2cc(C(=O)N(C)CC3CCOCC3)no2)cc(C)c1Cl	x	u	-28%	0%
3	O=C(Cn1cncn1)N/N=C/c1cccc(Cl)c1	-9	-0.2%	-1%	11%
4	Oc1ccc(-c2csc(Nc3cccnc3)n2)cc1	-3	2.2%	-51%	-9%
5	CCN(CC(=O)NC1CCS(=O)(=O)C1)S(=O)(=O)c1ccc(Cl)c(C(F)(F)F)c1 (centres undefined)	x	-1.1%	x	-1%
6	Cc1cc(C)n2nc(C(=O)OCC(=O)NNC(=O)c3ccccc3)nc2n1	x	-1.0%	x	11%
7	O=C(CN(c1ccc(Cl)cc1)S(=O)(=O)c1ccccc1)N1CCN(c2ccccc2)CC1	-6	-2.5%	6%	2%
8	CCOc1cc(CNc2ccc3c(c2)OCCO3)cc(Br)c1OCC	2	-3.9%	14%	41%
9	COc1ccc(-c2nc(CN3CCN(c4cc(C)nc(C)c4)CC3)c(C)o2)c2ccccc12	-4	-0.9%	-2%	-13%
10	O=C(CCNS(=O)(=O)c1ccc(Br)cc1)NCCCSc1ccccc1	x	-4.0%	x	5%
11	COc1cccc(S(=O)(=O)NCC(=O)N2CCCCCC2)c1	x	4.9%	0%	4%
12	COc1cc(S(=O)(=O)N2CCN(C(=O)c3ccco3)CC2)c(OC)cc1C	x	-0.1%	0%	-5%
13	C=CCNC(=S)Nc1c(N)n(C)c(=O)n(C)c1=O	-17	0.6%	-2%	3%
14	Cc1cccc(NC(=O)CSc2ncnc3c2oc2ccccc23)c1	-1	5.1%	-3%	-2%
15	O=C(Nc1ccccc1)c1csc(-c2ccccc2)n1	2	2.8%	-46%	-12%
16	O=C(CSc1ncn[nH]1)Nc1ccc([N+](=O)[O-])cc1Br	-4	u	-14%	9%
17	CC(C)C[C@@H]1NC(=O)N(CCN2CCOCC2)C1=O	-1	-0.3%	-1%	-12%
18	COc1ccc(C(CNC(=O)c2oc3ccc(C)cc3c2C)N2CCCCC2)cc1 (centres undefined)	x	2.3%	-1%	-13%
19	O=C(Cc1ccc(S(=O)(=O)N2CCOCC2)s1)NCC1CCCCC1	5	-4.1%	-3%	-28%
20	O=C(CN1CCCCCC1)Nc1cc([N+](=O)[O-])ccc1Cl	x	0.0%	0%	-2%
21	COc1ccc(C)cc1N(C)C(=O)c1coc(=O)c2ccccc12	2	-0.4%	2%	5%
22	CCOc1ccc(C(=O)Nc2ccc(Cc3ccncc3)cc2)cc1Br	-22	6.7%	1%	7%
23	Cc1ccc(NC(=O)c2cccnc2C(=O)Nc2ccc(C)cc2)cc1	-4	0.4%	-5%	4%
24	O=C(NNc1ccccc1)C(=O)NNc1ccccc1	x	0.6%	x	-3%
25	CCCCOP(=O)(OCCCC)C1(C)CC(=O)CC(C)(C)C1 (centres undefined)	x	1.9%	x	16%
26	CC1CCC(N2CC(=O)N(Cc3ccc4c(c3)OCO4)C(c3ccc(F)cc3)C2=O)CC1 (centres undefined)	2	3.2%	-1%	2%
27	CCOc1ccccc1N1CCN(C(=O)C(F)(F)F)CC1	5	-0.1%	0%	u
28	CCOC(=O)Nc1ccc(S(=O)(=O)Nc2onc(C)c2C)cc1	x	-0.3%	x	-5%
29	CCOC(=O)c1c2ccc(OCC(=O)NN)cc2n2ccccc12	-1	u	14%	u
30	CC1(c2ccc(Cl)cc2Cl)NC(=O)N(CC(=O)Nc2ccc3[nH]c(=O)[nH]c3c2)C1=O (centres undefined)	x	-1.8%	x	-4%
31	COc1ccc(/C=C/C(=O)c2ccc(NC(=O)c3cccs3)cc2)cc1OC	-4	u	10%	u
32	COc1cccc(CNS(=O)(=O)c2ccc3c(c2)CCN3C(=O)C2CC2)c1	4	0.9%	-6%	-8%
33	CC1(C)NC(=O)N(CC(=O)OCC(=O)Nc2cccc(S(N)(=O)=O)c2)C1=O	4	-3.6%	0%	-8%
34	O=C(NCC(=O)N1CCN(C(c2ccccc2)c2ccccc2)CC1)c1ccc(Br)o1	x	-0.3%	-1%	12%
35	COCCN(C(=O)CSc1ncc(C(F)(F)F)cc1Cl)c1c(N)n(Cc2ccccc2)c(=O)[nH]c1=O	-4	-0.3%	-2%	-18%
36	CC1CCCC(C)N1C(=O)c1cc(-c2ccc3c(c2)OCO3)on1 (centres undefined)	x	-0.6%	-60%	-4%
37	O=C(COc1ccc(C2SCCS2)cc1)NNC(=O)C(Cl)Cl	-1	5.6%	-36%	13%
38	Clc1cncc(Cl)c1N/N=C/c1ccccc1	-2	0.7%	-35%	1%
39	CCOc1ccc2[nH]cc(C(=O)N3CCN(C4CCCCC4)CC3)c(=O)c2c1	x	-0.2%	x	-5%
40	CC(C)(C)OC(=O)NCCCCC1=CC2=CC(=O)C(C)(O)C(=O)C2=CO1 (centres undefined)	3	u	x	-12%
41	Cc1occc1C(=O)Nc1nnc(-c2ccncc2)s1	4	-5.1%	-10%	-11%
42	Cc1ccc(C(=O)NC(=S)Nc2ccc(N3CCOCC3)cc2)cc1C	3	-1.6%	-17%	-1%
43	O=C(O)CCCNS(=O)(=O)c1ccc2ccccc2c1	8	-1.4%	4%	0%
44	Cc1ccc(-c2cc(C(=O)Nc3cnn(C45CC6CC(CC(C6)C4)C5)c3)no2)cc1	-1	0.1%	-2%	-1%
45	Cc1cc(C)cc(N2C(=O)CSC2c2cccs2)c1 (centres undefined)	6	0.0%	4%	2%
46	CC(C)(C)OC(=O)C[C@@H]1C/C=C\C[C@H](CC(=O)N(CCO)Cc2ccccc2)C(=O)NCCOC1=O	x	-4.0%	x	0%
47	C/C(=N\NC(=O)c1cc(C(C)C)[nH]n1)c1ccncc1	x	3.6%	-36%	-1%
48	COc1ccccc1/C=C/C=N/n1c(-c2ccccn2)n[nH]c1=S	5	-1.1%	-71%	-1%

Two entries from above, with values under each structure.
Value order – GLA inh pH 4.5, Rango-impB inh, miR-21 FLuc, Rango dissoc inh
33	CC1(C)NC(=O)N(CC(=O)OCC(=O)Nc2cccc(S(N)(=O)=O)c2)C1=O
  4, -3.6%, 0%, -8%
34	O=C(NCC(=O)N1CCN(C(c2ccccc2)c2ccccc2)CC1)c1ccc(Br)o1
  x, -0.3%, -1%, 12%

(cont.)
entry	smiles	GLA inh pH 4.5	Rango-impB inh	miR-21 FLuc	Rango dissoc inh
49	C1CC(CN2CCOCC2)CN(c2nc3nonc3nc2N2CCSCC2)C1 (centres undefined)	-5	2.0%	-1%	-4%
50	Cc1cc(C)c(NC(=O)COc2nc3ccccc3nc2C)c(C)c1	3	-1.8%	-1%	-4%
51	S=c1[nH]nc(Cc2ccccc2)n1-c1ccc(Cl)cc1	4	-0.4%	-2%	-3%
52	O=C1/C(=C/c2cccnc2)SC(=S)N1NS(=O)(=O)c1ccccc1	x	3.7%	-3%	-7%
53	O=C(CN1CCN(S(=O)(=O)c2ccc(Br)s2)CC1)N1CCCCC1	x	-0.2%	x	34%
54	Cc1n[nH]c(C)c1Sc1ccccc1N=Cc1cc([N+](=O)[O-])ccc1O	-2	x	1%	x
55	Cc1nn2c3c(cnc2c1-c1ccc(Cl)cc1)C(=O)CC(c1ccco1)C3 (centres undefined)	5	u	-1%	u
56	N#CC1=C(N)Oc2n[nH]c(-c3ccccc3)c2C12C(=O)Nc1ccccc12 (centres undefined)	-3	5.2%	3%	2%
57	O=C(NC(=S)Nc1ccc2oc(-c3ccncc3)nc2c1)c1ccccc1F	-3	3.3%	-5%	-5%
58	Cc1cc(=O)[nH]c(SCC(=O)NCC2CCCO2)n1 (centres undefined)	-5	0.3%	0%	-14%
59	Cc1nn(-c2ccccc2)c(Cl)c1/C=N/N1CCN(c2ccccn2)CC1	6	4.3%	-2%	16%
60	COc1ccccc1-n1cnnc1SCC(=O)Nc1cccnc1Cl	-4	0.0%	-2%	-2%
61	O=C(N/N=C(/CC(=O)c1cccs1)C(F)(F)F)c1ccc(O)cc1	-4	5.2%	-19%	-5%
62	CC(=O)Nc1ccc(S(=O)(=O)NCCc2ccc(S(N)(=O)=O)cc2)cc1	-9	0.4%	3%	-7%
63	CC(C)(C)c1cnnn1-c1ccc(C(=O)CCl)cc1	6	-4.3%	7%	-5%
64	C/C(=N\NC(=O)CC1(C)OCCO1)c1cccs1	4	-1.8%	-14%	8%

In the list so far, these have a furan ring, fused or not.
entry	smiles	GLA inh pH 4.5	Rango-impB inh	miR-21 FLuc	Rango dissoc inh
12	COc1cc(S(=O)(=O)N2CCN(C(=O)c3ccco3)CC2)c(OC)cc1C	x	-0.1%	0%	-5%
14	Cc1cccc(NC(=O)CSc2ncnc3c2oc2ccccc23)c1	-1	5.1%	-3%	-2%
18	COc1ccc(C(CNC(=O)c2oc3ccc(C)cc3c2C)N2CCCCC2)cc1 (centres undefined)	x	2.3%	-1%	-13%
34	O=C(NCC(=O)N1CCN(C(c2ccccc2)c2ccccc2)CC1)c1ccc(Br)o1	x	-0.3%	-1%	12%
41	Cc1occc1C(=O)Nc1nnc(-c2ccncc2)s1	4	-5.1%	-10%	-11%
55	Cc1nn2c3c(cnc2c1-c1ccc(Cl)cc1)C(=O)CC(c1ccco1)C3 (centres undefined)	5	u	-1%	u

Further structures
entry	smiles	GLA inh pH 4.5	Rango-impB inh	miR-21 FLuc	Rango dissoc inh
65	CCNC(=O)CSc1nnc(-c2cc(-c3ccc(Cl)cc3)nc3ccccc23)o1	9	4.6%	-14%	14%
66	CCOc1cc(Cl)c(S(=O)(=O)NCCCN2CCOCC2)cc1Cl	x	-4.6%	-1%	24%
67	CCN(CC(=O)NCc1ccco1)S(=O)(=O)c1ccc(F)cc1	x	7.3%	0%	4%
68	CCOC(=O)Cn1c(=O)c2c(nc(Br)n2Cc2ccc(Cl)cc2)n(C)c1=O	3	0.0%	0%	11%
69	CC(C)[C@H](NC(=O)c1cccc(CN(Cc2ccccc2)C(=O)/C=C/c2ccccc2)c1)C(=O)O	x	0.0%	x	3%
70	Cc1nn(Cc2ccc(Cl)c(Cl)c2)c(C)c1NC(=O)c1noc2c1CCCCC2	1	1.5%	1%	-14%
71	O=C(COC(=O)c1ccccc1OCc1ccccc1Cl)NCC1CCCO1 (centres undefined)	x	5.1%	x	-2%
72	Cc1cc(NC(=O)CN2CCc3ccccc3C2)nc2c1c(=O)oc1ccccc12	-5	-5.7%	-1%	-23%
73	O=C(Cn1cnc([N+](=O)[O-])c1)NCc1ccc(F)cc1	-8	0.4%	0%	1%
74	S=C(Nc1ccccc1Cl)N(CCN1CCCCC1)Cc1ccco1	-10	-4.4%	-4%	11%
75	Cc1cccc(C(C)C)c1NC(=O)c1ccc(COc2ccc3c(C)cc(=O)oc3c2)cc1	12	-1.7%	-2%	-17%
76	CCOc1ccc(OCC(=O)Nc2ccccc2N2CCCC2)cc1	x	-3.8%	x	-10%
77	COCCN(CCOC)C(=O)C1CCN(c2ccc(S(=O)(=O)N3CCOCC3)cc2[N+](=O)[O-])CC1	x	0.5%	x	16%
78	N=c1oc2ccc(Br)cc2cc1C(=O)NC1CCCCCC1	x	-1.3%	-3%	-13%
79	COc1ccc(OCCSc2nnc(C)n2-c2ccccc2)cc1	-2	u	-14%	-8%

A portion of the library; count on the stated rates, not on these rows.
